High-throughput results as filed in PubChem.
aSyn UTR inh: MLPCN primary screen, SNCA 5' untranslated region. alpha-synuclein 5'UTR reporter, inhibitor activity. inhibition, % (tested at 7.5 µM). actives 0.82% (n = 300,000); in the data active means inhibition above about 60%; inconclusive means no clear call, values can overlap the other calls;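 further: H4 neuroglioblastoma cells stably carrying SNCA 5'UTR luciferase fusion; 0% = DMSO wells and 100% = positive control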
Platelet DG rel: platelet dense granule release activity; human platelet-rich plasma, SFLLRN dense granule ATP release, luminescence; inhibition, %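 (compounds screened at 7.5 µM in platelet-rich plasma)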; actives 0.22% (n = 300,000); AID 1663;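 active means mean replicate score, as percent of positive control, at or above 50; inconclusive means mean below 50 but at least one replicate at or above 50; inactive means mean and every replicate below 50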
HDAC3 inhib: blocks human histone deacetylase 3; actives 0.15% (n = 320,000); AID 2718; recombinant HDAC3, fluorogenic peptide/trypsin coupled, fluorescence; inhibition, % at 8.3 µM; O15379; in the data active means inhibition above about 26%, passing the limit was not always enough; inconclusive means no clear call, values can overlap the other calls
Target sequence (O15379 whole entry, looked up): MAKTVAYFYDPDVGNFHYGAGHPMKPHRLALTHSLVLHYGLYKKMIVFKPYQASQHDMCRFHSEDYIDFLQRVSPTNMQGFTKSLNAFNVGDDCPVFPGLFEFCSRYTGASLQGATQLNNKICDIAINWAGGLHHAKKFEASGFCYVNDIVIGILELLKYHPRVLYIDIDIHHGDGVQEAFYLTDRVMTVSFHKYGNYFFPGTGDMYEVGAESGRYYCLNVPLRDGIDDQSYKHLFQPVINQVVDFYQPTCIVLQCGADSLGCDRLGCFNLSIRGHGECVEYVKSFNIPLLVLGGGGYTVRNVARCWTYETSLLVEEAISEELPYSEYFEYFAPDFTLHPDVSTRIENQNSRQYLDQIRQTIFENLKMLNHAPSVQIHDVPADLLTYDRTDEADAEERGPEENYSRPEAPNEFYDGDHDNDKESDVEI
HSP90 refold inh: HSP90 refolding inhibition in rabbit reticulocyte lysate | actives 0.91% (n = 290,000) | luciferase refolding luminescence, 3 h | AID 1789 | inhibition, % at 5.6 µM;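 active means inhibition above the screen-wide mean plus 3 SD, computed separately per campaign, cut at about 16% in these data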;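 further: 0% = DMSO wells and 100% = 60 µM geldanamycin wells; inhibitors lower the luminescence because luciferase stays unfolded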
KLF5 inhibitor: suppresses KLF5 promoter-driven expression; DLD-1 KLF5 promoter-luciferase reporter, luminescence; inhibition, % at 5 µM; actives 0.23% (n = 290,000);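 active means inhibition above a per-plate limit of that plate's mean compound inhibition plus 3 SD, cut at about 60% in these data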;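 further: 0% = DMSO wells and 100% = LY294002 at 200 µM; higher means less KLF5 promoter-driven luciferase light; inactives centre near -14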
HSF-1 act: increases HSF-1 driven luciferase reporter signal; NIH3T3-HGL HSF-1 luciferase reporter, MG132, 8 h; 100% = twice DMSO control signal; activation, % at 9 µM; actives 1.7% (n = 300,000); AID 504408;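 active means mean replicate activation of at least 50% with a set share of replicates each reaching 50%; inconclusive means only one of those two conditions met; inactive means mean below 50% and too few replicates reaching it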;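 further: 0% = median of the neutral control wells and 100% = twice that signal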
IEC-6 cytotox: counter-screen for KLF5 inhibitors: cytotoxicity in IEC-6 cells; IEC-6 cytotoxicity, luminescence viability; inhibition, % at 5 µM; actives 0.78% (n = 290,000); AID 1825; in the data active means inhibition above about 22%;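 further: 0% = plate median of test compound wells and 100% = cytotoxic reference compound wells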
AI-2 QS mod: Vibrio harveyi AI-2 quorum sensing modulation; Vibrio harveyi JMH597 AI-2 luminescence/OD600 ratio, 9 h; active compounds read low; strain lacks LuxN and CqsS sensors; 0 = neutral-control median; activity change, % at 7.5 µM; actives 0.4% (n = 300,000); AID 2094; in the data active means activity change below about -75%, passing the limit was not always enough; inconclusive means no clear call, values can overlap the other calls;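 further: luminescence divided by OD600 gain over 9 h not by final OD600 alone; inactives centre near 13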
HSF1 inh: HSF1 inhibition; NIH3T3-HGL HSE-luciferase, MG132-induced, luminescence 8 h; active compounds read low; activity change, negative = inhibition, % at 7.5 µM (by protocol); actives 0.77% (n = 300,000); AID 2098;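 active means more than half of replicate wells show activity change below -50%, luminescence cut by over half; inconclusive means some wells, but at most half, below -50%; inactive means no replicate well below -50%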;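 further: luciferase reports HSF-1 transcriptional activity via heat shock element; 0% = median of DMSO wells and -100% = zero luminescence signal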
Starred values were filed as active, the others as inactive; ? = inconclusive; . = no result given; & = joins results of further samples. These rows are one share of the data, so the mix of outcomes need not match the whole.

SMILES | aSyn UTR inh | Platelet DG rel | HDAC3 inhib | HSP90 refold inh | KLF5 inhibitor | HSF-1 act | IEC-6 cytotox | AI-2 QS mod | HSF1 inh
O=C(NCc1ccco1)c1ccc(=O)[nH]n1 | 0 | 13 | 4 | 0 | -14 | 3 | -4 | 20 | 0
CC(=O)O[C@H]1C[C@@]2(C)[C@@H](C[C@@H](O)[C@H]3[C@@]4(C)CC[C@@H](O)[C@@H](C)[C@@H]4CC[C@@]32C)/C1=C(\CCC=C(C)C)C(=O)O | -3 | -3 | -5&6 | . | . | 2 | . | 16 | 1
CCOC(=O)CSc1nc(NC#N)nc(N(CC)CC)n1 | 8 | -2 | -2 | -2 | 1 | 2 | -8 | 23 | -4
Cc1ccccc1C(OCCN(C)C)c1ccccc1 (centres undefined) | -22 | 0 | 1 | 4&-9 | 17&13 | -15 | -2&-10 | 26&0 | -4
CCOc1ccc(-c2nc(C#N)c(NCC(C)C)o2)cc1 | 38 | -5 | 5 | 1 | -10 | 2 | 4 | 13 | -1
O=C1CCC(=O)N1CNc1ccccn1 | 12 | 3 | -6 | -2 | -2 | -77 | 2 | 14 | -70*
CN[C@H](CC(=O)O)C(=O)O | -3 | -1 | 1 | . | . | -9 | . | 5 | -5
Cc1cc(C(C)(C)C)c(O)c(C)c1CC1=NCCN1 | 20 | -4 | -1 | -5 | -24 | -3 | -7 | 12 | -5
COc1[nH]c2ccc(F)cc2c1C(=O)OCC1CCN(CCNS(C)(=O)=O)CC1 | -2 | 7 | 8 | . | . | -12 | . | 5 | -3
COC(=O)c1cc(Br)c(=O)n(Cc2ccco2)c1 | -6 | 3 | 3 | 2 | 12 | 7 | -3 | 26 | 0
CC(=O)c1ccc(C#CC(C)(C)O)s1 | 0 | 4 | -1 | 1 | -28 | -9 | -7 | 14 | 2
Cc1cc(=O)oc2cc(OCC(=O)NCc3cccnc3)ccc12 | 5 | 2 | 4 | 1 | 1 | 3 | -2 | 14 | -9
CC(=O)Oc1cc(C(C)C)c(OCCN(C)C)cc1C | 3 | -1 | -4 | -2 | 2 | 2 | 3 | 17 | 2
CC(C)NCC(O)COc1ccc(CC(N)=O)cc1 (centres undefined) | 2 | -5 | 3 | 0 | -8 | -26 | . | 7 | 0
C[C@]12C=CC(=O)C=C1CC[C@@H]1[C@@H]2[C@@H](O)C[C@@]2(C)[C@H]1CC[C@]2(O)C(=O)CO | -4 | -1 | 0 | -3 | -21 | -56 | 6 | 0 | -44
c1ccc2c(N3CCCCC3)nc(N3CCCCC3)nc2c1 | 23 | -1 | -2 | -2 | -21 | 12 | 1 | 5 | -5
CC(=O)Nc1ccc(NCC(O)COc2ccccc2)cc1 (centres undefined) | 2 | -2 | 0 | 13 | -10 | -1 | -1 | 17 | -3
CCC1=C(C(=O)OC)C(c2cc(OC)ccc2OC)C(C#N)=C(N)O1 (centres undefined) | -21 | -3 | -1 | 1 | -10 | -36 | -1 | 8 | -17
CO[C@H]1C=CO[C@@]2(C)Oc3c(C)c(O)c4c(O)c(c5c(c4c3C2=O)NC2(CCN(CC(C)C)CC2)N=5)=NC(=O)C(C)=CC=C[C@H](C)[C@H](O)[C@@H](C)[C@@H](O)[C@@H](C)[C@H](OC(C)=O)[C@@H]1C | 30 | 2 | 6 | 0 | -10 | -9 | 13 | ? | -5
COc1ccc(OC)c(N=C(C)C2=C(O)COC2=O)c1 | 6 | 2 | -1 | 1 | -22 | 5 | 5 | 6 | -4

Of the compounds above, two contain a furan ring, fused or not.
SMILES | aSyn UTR inh | Platelet DG rel | HDAC3 inhib | HSP90 refold inh | KLF5 inhibitor | HSF-1 act | IEC-6 cytotox | AI-2 QS mod | HSF1 inh
O=C(NCc1ccco1)c1ccc(=O)[nH]n1 | 0 | 13 | 4 | 0 | -14 | 3 | -4 | 20 | 0
COC(=O)c1cc(Br)c(=O)n(Cc2ccco2)c1 | -6 | 3 | 3 | 2 | 12 | 7 | -3 | 26 | 0

4 structures from above, arranged by molecular weight, largest number first.
SMILES | aSyn UTR inh | Platelet DG rel | HDAC3 inhib | HSP90 refold inh | KLF5 inhibitor | HSF-1 act | IEC-6 cytotox | AI-2 QS mod | HSF1 inh
CCOC(=O)CSc1nc(NC#N)nc(N(CC)CC)n1 | 8 | -2 | -2 | -2 | 1 | 2 | -8 | 23 | -4
CCOc1ccc(-c2nc(C#N)c(NCC(C)C)o2)cc1 | 38 | -5 | 5 | 1 | -10 | 2 | 4 | 13 | -1
Cc1ccccc1C(OCCN(C)C)c1ccccc1 (centres undefined) | -22 | 0 | 1 | 4&-9 | 17&13 | -15 | -2&-10 | 26&0 | -4
O=C1CCC(=O)N1CNc1ccccn1 | 12 | 3 | -6 | -2 | -2 | -77 | 2 | 14 | -70*

New compounds follow
SMILES | aSyn UTR inh | Platelet DG rel | HDAC3 inhib | HSP90 refold inh | KLF5 inhibitor | HSF-1 act | IEC-6 cytotox | AI-2 QS mod | HSF1 inh
O=C(Oc1ccccc1)c1c(Cl)cccc1P(=O)(O)O | 12 | -1 | -1 | -2 | -32 | 26 | -2 | 16 | -3
N=C(N)c1ccccc1 | -35&12 | -5&-3 | 7&-8 | . | . | -18&5 | . | 6&4 | -5&-1
CC(=O)O[C@H]1C[C@@]2(C)[C@@H](C[C@@H](O)[C@H]3[C@@]4(C)CC[C@@H](O)[C@@H](C)C4CC[C@@]32C)/C1=C(\CCC=C(C)C)C(=O)O (some centres undefined) | 40 | 0 | . | 3 | -24 | -14 | 6 | 16 | 7
Clc1ccccc1-c1nnc2sc(-c3ccco3)nn12 | -10 | 7 | -2 | 4 | 0 | 4 | 3 | 11 | 1
